Choline anaer gr = choline-fed anaerobic bacterial growth inhibition; Gram-negative bacterium anaerobic choline minimal medium, absorbance growth; stronger effect = lower value; many inactives read as strong as hits in the columns shown; calls only; 55,000 compounds, 0.2% hits; AID 1963822;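 active = growth z-score on choline under -2 at 7 or 20 h with little or no fall on glycerol, limits in tiers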;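 also: stock transfer was 300 nL into about 50 µL; the organism is E. coli; final concentration not given here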
Choline anaer gr early = also measured in Choline anaer gr; calls as there; z-score; measured here: choline growth z-score, timepoint 1;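 score of optical density at 7 h as mean of two plates; lower means less growth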
Numbers without * were called inactive; i = inactive; & = joins results of further samples. This is a subset (hit frequency here may not be typical).

SMILES,Choline anaer gr,Choline anaer gr early
Cc1ccc(NC(=O)c2ccc(-n3nc(N4CCCC4)ccc3=O)cc2)nc1,i,-0.79
Cc1nc(N2CCc3ccccc32)nc2c1C(=O)CC(c1ccccc1)C2 (stereo unspecified),i,0.33
c1cc(CNc2nc(C3CC3)nc3c2CCC3)ccn1,i,-1.2
O=S(=O)(Nc1ccc2c(c1)OCCO2)c1ccc(-c2nnc(C3CCC3)o2)o1,i,-0.74
Cc1ccc(NC(=O)c2ccc3c(c2)N(Cc2ccc(F)cc2)C(=O)CS3)cc1Cl,i,2.5
COc1ccccc1N1CCN(CCn2c(=O)[nH]c3c([nH]c4ccccc43)c2=O)CC1,i,0.82
COc1cc(NC(=O)CCc2c(C)n(C)c3cc(-c4ccccc4OC)nn3c2=O)cc(OC)c1,i,0.62
O=C(C1CCCN(Cc2cccs2)C1)N1CCCC1 (stereo unspecified),i,-0.94
Cc1ccc(NC(=O)Nc2ccc(CCc3nc4ccccc4n3C)cc2)c(C)c1,i,-1.4
CC(C)(C)n1nc2c(c1NC(=O)c1cccc(Br)c1)CS(=O)(=O)C2,i,0.16
Cc1ccc(CCN2C(=O)CSc3c(c(C)nn3-c3ccccc3)C2C(=O)NC2CCCC2)cc1 (stereo unspecified),i,0.35
COc1ccc(C2C3=C(CC(c4ccccc4)CC3=O)Nc3onc(C)c32)c(OC)c1 (stereo unspecified),i,-1.5
O=C(NCc1ccc2c(c1)OCO2)c1ccc(-c2cccc(F)c2)nc1,i,0.76
CC1CCN(C(=O)C2CCN(c3cncnc3N3CCOCC3)CC2)CC1,i,-1.1
O=C(c1ccc(-c2nc(-c3ccc(F)cc3)no2)cc1)N1CCc2ccccc21,i,-1.4
Cc1ccc(N2C(=O)c3cccnc3C2=O)cc1,i,-1.3
Cc1nnc(-c2ccc(S(=O)(=O)N3CCN(C4CCCCC4)CC3)o2)o1,i,-1.1
CNc1cc(C(C)(C)C)nc2c(-c3ccc(F)cc3)c(C)nn12,i,0.18
CC1CC(=O)N(CC(=O)N(C)c2ccccc2)c2cc(S(=O)(=O)N3CCCCC3)ccc2S1 (stereo unspecified),i,1.1
CCn1c(=O)c(N2CCC(C(=O)NCc3ccc4c(c3)OCO4)CC2)nc2cccnc21,i,-0.88
Cc1cc(Sc2ccccc2NC(=O)COc2ccc(Cl)cc2)n2ncnc2n1,i,0.64
CC1(C)CC(=O)C2=C(C1)Nc1ccccc1N(CC(=O)NCc1ccccc1)C2c1ccc(F)cc1 (stereo unspecified),i,-0.07
O=S(=O)(c1ccc(Cl)cc1)N1CCN(c2nc3ccccc3n3cccc23)CC1,i,-0.78
CC1(C)CC(=O)C2=C(C1)Nc1ccccc1N(CC(=O)NC1CCCC1)C2c1ccc(F)cc1 (stereo unspecified),i,-0.44
COc1cccc(N2C(=O)c3cccnc3C2Nc2ccc(C)cc2)c1 (stereo unspecified),i,-1.5
Cc1ccc(NC(=O)CSc2nnc(C(C)N3C(=O)COc4ccccc43)n2C)cc1Cl (stereo unspecified),i,1.4
O=C(NC1CCCCC1)c1cc2cccc3c2n1CCO3,i,-0.11
CCOC(=O)CS(=O)(=O)c1cc2c(cc1NC(=O)CC)n(C)c(=O)c(=O)n2C,i,0.56
Cc1ccc(CNC2=NCCNC23CCN(S(=O)(=O)c2cc(C)ccc2C)CC3)cc1,i,-0.42
O=C(Nc1ccc(F)c(Cl)c1)N1CCN(Cc2nc3cccnc3n2-c2ccccc2)CC1,i,-2.4
CCN1CCCn2nc(C3CCN(C(=O)C4(c5ccccc5)CC4)CC3)cc2C1=O,i,0.36
CCc1nc(Oc2cccnc2)c2oc3ccccc3c2n1,i,0.36
COc1cccc(C(=O)NCc2ccc3c(c2)N(C(=O)c2ccc(Cl)cc2)CC3)c1,i,0.37
Cc1ccc2c(cnn2C(=O)CCCC(=O)NCCc2ccccc2)c1,i,-0.93
Cc1cccc(OC(=O)c2cc(-c3ccc4c(c3)OCCO4)on2)c1,i,0.94
O=C(CSc1nccn2nc(-c3ccc(Cl)cc3)cc12)Nc1nccs1,i,-0.72
CC(=O)Nc1ccc(S(=O)(=O)N2CCn3cccc3C2c2ccccc2)cc1 (stereo unspecified),i,-1.2
NC(=O)c1ccc2[nH]ccc2c1,i,0.01&0.26
Cc1cc(NC(=O)NCCn2c(C(F)(F)F)nc3cccnc32)ccc1Br,i,0.88
C=Cc1ccc(CSc2nnc3n(CCC(C)C)c(=O)c4ccccc4n23)cc1,i,4.1
COc1cc(C2OC(c3ccccc3)=NN2C(C)=O)ccc1O (stereo unspecified),i,-1.5
NC(N)=[N+]1CCc2ccccc2C1,i,-0.28
Cc1cc(N2CCCC2)n2nc(-c3ccc(Cl)cc3)c(C)c2n1,i,0.95
O=C(NCCCc1ccccc1)c1ccc(CSc2nc3ccncc3[nH]2)cc1,i,-0.33
COc1ccccc1C1C2=C(CC(c3ccc(Cl)cc3)CC2=O)Nc2onc(C)c21 (stereo unspecified),i,1.1
COC(=O)c1ccccc1NC(=O)c1ccc2c(c1)CC(c1ccccc1)OC2=O (stereo unspecified),i,0.91
O=C(CN1C(=O)CN(C(=O)NCc2ccccc2)c2ccccc21)N1CCCC1,i,0.09
O=C1CC(c2ccccc2Br)c2cnn(-c3nc4ccccc4s3)c2N1 (stereo unspecified),i,1.1
O=C(CCc1nc2sc3c(c2c(=O)[nH]1)CCCC3)Nc1ccccc1Cl,i,0.39
COC(=O)CC1=CC(=O)N(Cc2cc(C)ccc2C)c2cc(C)c(C)cc2N1,i,-0.42
CC(C)(C)C(=O)N1CC(C(=O)NC2CCCC2)C2(CCCC2)C1 (stereo unspecified),i,0.62
CCn1cnc(S(=O)(=O)N2CCC(C(=O)NC3CCC(C)CC3)CC2)c1 (stereo unspecified),i,-0.38
Cc1ccc(-c2noc3ncnc(NC4CCCC4)c23)cc1,i,-1
COc1ccc(CCC(=O)NCCc2nc(-c3ccccc3)n[nH]2)cc1,i,0.45
COc1cc(OC)cc(C(=O)N2CC(OCc3ccc(F)cc3Cl)C2)c1,i,0.97
O=c1ccc(-c2ccc3c(c2)OCO3)nn1Cc1nc(-c2ccc3c(c2)OCO3)no1,i,-1.2

Pulled by compound from above, 4 records:
SMILES,Choline anaer gr,Choline anaer gr early
CC(C)(C)C(=O)N1CC(C(=O)NC2CCCC2)C2(CCCC2)C1 (stereo unspecified),i,0.62
COC(=O)CC1=CC(=O)N(Cc2cc(C)ccc2C)c2cc(C)c(C)cc2N1,i,-0.42
O=C(CCc1nc2sc3c(c2c(=O)[nH]1)CCCC3)Nc1ccccc1Cl,i,0.39
Cc1ccc(-c2noc3ncnc(NC4CCCC4)c23)cc1,i,-1

Of the compounds above, 2 have two or more sulfur atoms.
SMILES,Choline anaer gr,Choline anaer gr early
CC1CC(=O)N(CC(=O)N(C)c2ccccc2)c2cc(S(=O)(=O)N3CCCCC3)ccc2S1 (stereo unspecified),i,1.1
O=C(CSc1nccn2nc(-c3ccc(Cl)cc3)cc12)Nc1nccs1,i,-0.72

Next part.
SMILES,Choline anaer gr,Choline anaer gr early
COc1cccc(C(Nc2nc(C)cc(C)n2)c2cc(C)sc2NC(=O)c2ccccc2)c1OC (stereo unspecified),i,-0.56
COCCOC(=O)c1cnn2c(C(F)(F)F)cc(-c3ccc(OC)c(OC)c3)nc12,i,-1.5
COc1ccc(Cl)cc1NC(=O)C1Nc2cc(F)ccc2S(=O)(=O)N1 (stereo unspecified),i,0.2
c1ccc(CN2CCN(c3c4c(nc5nc(-c6ccccc6)nn35)CCCC4)CC2)cc1,i,-0.15
Cc1cn([C@H]2C[C@@H](N=[N+]=[N-])[C@@H](CO)O2)c(=O)[nH]c1=O,i,-2.6
O=C(Nc1nc(-c2ccccc2)cc(-c2ccccc2)n1)c1ccccc1F,i,-0.98
Cc1nc(CCNC(=O)[C@H]2CCCN2S(=O)(=O)c2cc(C)c(C)cc2C)cs1,i,-0.49
CN(C)c1nc2ncnc(SCC(=O)Nc3ccc(Br)cc3)c2s1,i,0.2

Single entries from the list:
Under Choline anaer gr early, CN(C)c1nc2ncnc(SCC(=O)Nc3ccc(Br)cc3)c2s1 is listed with 0.2
Under Choline anaer gr early, Cc1cn([C@H]2C[C@@H](N=[N+]=[N-])[C@@H](CO)O2)c(=O)[nH]c1=O is listed with -2.6
Under Choline anaer gr early, COCCOC(=O)c1cnn2c(C(F)(F)F)cc(-c3ccc(OC)c(OC)c3)nc12 is listed with -1.5
Under Choline anaer gr early, O=C(Nc1nc(-c2ccccc2)cc(-c2ccccc2)n1)c1ccccc1F is listed with -0.98
Under Choline anaer gr early, Cc1nc(CCNC(=O)[C@H]2CCCN2S(=O)(=O)c2cc(C)c(C)cc2C)cs1 is listed with -0.49

Following part
structure | Choline anaer gr | Choline anaer gr early
CCCNC(=O)c1ccc(-c2nc(CCN(C)C(=O)c3ccc(Cl)cc3)no2)cc1 | i | -0.13
COc1ccc(C2CC(=O)Nc3c2cnn3-c2nc3ccccc3s2)cc1Br (stereo unspecified) | i | 1.7
CCn1ccc2cc(S(=O)(=O)N3CCCC(C(=O)NC)C3)ccc21 (stereo unspecified) | i | -1.2
Cc1cccc(N2CCN(C(=O)C3CCCN(c4nc5ccccc5n5cccc45)C3)CC2)c1C (stereo unspecified) | i | 0.3
Cc1ccc(CNC(=O)c2ccc(-c3nc(CCN(C)C(=O)Nc4ccccc4)no3)cc2)cc1 | i | 0.23
O=C1CCCc2cc(S(=O)(=O)NCC3CCC(C(=O)Nc4ccc(Cl)cc4)CC3)ccc2N1 (stereo unspecified) | i | 1.7
O=c1[nH]nc2c3ccccc3n(Cc3cccc(F)c3)cc1-2 | i | 1.2
COc1ccc2c(c1)cc(C(=O)NCCC1=CCCCC1)n2C | i | -0.8
COc1cc(OC)c(NC(=O)N2CCCC2c2cc(C(C)C)on2)cc1Cl (stereo unspecified) | i | 1.1
O=C(Nc1ccc2nn(-c3ccccc3)nc2c1)c1oc(=O)c2ccccc2c1-c1ccccc1 | i | 0.65
CN(CC1(C)CCOCC1)S(=O)(=O)c1cc(F)ccc1F | i | -1.1
O=C(O)CSc1nc2nc[nH]c2c(=O)[nH]1 | i | -0.13
O=C(CCS(=O)(=O)c1ccc2c(c1)NC(=O)CS2)Nc1ccc(Cl)cc1 | i | 0.06
Cc1sc(-c2ccno2)cc1S(=O)(=O)NCCc1ccc(S(N)(=O)=O)cc1 | i | -0.25
CN1CCc2c(sc3c2CN(C(=O)Nc2ccccc2)C(c2ccc(Cl)cc2)c2cccn2-3)C1 (stereo unspecified) | i | -0.83
CN(C)S(=O)(=O)c1ccc2c(c1)cc(C(=O)N1CCCCC1)n2Cc1ccncc1 | i | -0.2
COc1ccc(S(=O)(=O)Nc2cc(C(=O)O)ccc2N2CCN(C)CC2)cc1 | i | -0.58
CCOc1ccccc1-c1cc(NC(=O)Cn2ncc3c2-c2ccccc2OC3)on1 | i | -0.39
CC(C)C(=O)n1nc(-c2ccc(Cl)cc2)nc1N | i | 0.56
CCCCCCCC/C=C\CCCCCCCC(=O)N[C@@H](CO)Cc1ccc(O)cc1 | i | 1.4&1.3

Structural class: the entries above with a COOH group.
structure | Choline anaer gr | Choline anaer gr early
O=C(O)CSc1nc2nc[nH]c2c(=O)[nH]1 | i | -0.13
COc1ccc(S(=O)(=O)Nc2cc(C(=O)O)ccc2N2CCN(C)CC2)cc1 | i | -0.58

Further structures follow.
structure | Choline anaer gr | Choline anaer gr early
Cc1ccc(Cl)cc1NC(=O)c1cnn2c(C(F)F)cc(-c3ccccc3)nc12 | i | -0.06
CCC(C(=O)O)N1C(=O)CCn2nc(C)cc21 (stereo unspecified) | i | -0.59
O=C(NCc1ccc(F)cc1Cl)C1CCCN(c2ncnc3c2oc2ccccc23)C1 (stereo unspecified) | i | -1
Cc1cccc(C(=O)N2CCCN(Cc3noc(-c4ccccc4)n3)CC2)c1C | i | -0.91
CC1Cc2cccc3c(=O)c(C(=O)Nc4ccc(S(N)(=O)=O)cc4)cn1c23 (stereo unspecified) | i | 0.52
CCOC(=O)c1noc2ncn(CC(=O)Nc3ccc(C)c(F)c3)c(=O)c12 | i | 1
Cc1nc2sccn2c(=O)c1NC(=O)COc1ccc(Cl)cc1 | i | 0.93
Cc1ccc2[nH]c(=O)c(-c3noc(CCC(=O)NC4CCCC4)n3)cc2c1 | i | -0.58
CC(C)c1cc(NC2CCCC2)n2nc(-c3cccnc3)nc2n1 | i | -1.4
Cc1cccc(-c2noc(-c3cccc(NC(=O)C4CC(=O)N(c5ccccc5)C4)c3)n2)c1 (stereo unspecified) | i | 0.15
CC(C)c1nc(CNC(=O)c2ccccc2)no1 | i | 0.6
O=C1C(=O)N(C2CCN(C(=O)c3ccc4c(c3)OCO4)CC2)CCN1Cc1ccccc1 | i | -0.02
NS(=O)(=O)c1ccc(CCNC(=O)c2csc3c2CCCCC3)cc1 | i | -0.65
CCC(=O)Nc1cccc(-c2noc(C3CCCN(C(=O)c4cccc(OC)c4)C3)n2)c1 (stereo unspecified) | i | -1.2
COc1cc(OC)c(NC(=O)N2CCCC2c2cc(C(C)C)no2)cc1Cl (stereo unspecified) | i | 0.58
O=c1cc(-c2ccccc2)nc(Nc2ccc(F)cc2)[nH]1 | i | -0.51
NS(=O)(=O)c1ccc(Cl)c(-c2nnc(-c3ccccc3)o2)c1 | i | 1.5
CC(C)(C)CC(=O)NC1CC(=O)N(c2ccc(F)cc2)C1 (stereo unspecified) | i | -2.5
COc1ccc(NC(=O)c2nn(C)c3c2CSc2ccc(Cl)cc2-3)c(OC)c1 | i | -0.07
O=C(Nc1nnc(C2CC(=O)N(c3ccccc3)C2)s1)c1sc2ccccc2c1Cl (stereo unspecified) | i | 0.09
CCC1CCCCN1C(=O)c1cc(C)on1 (stereo unspecified) | i | -0.57
Cc1cc(C2CCCN2C(=O)C2CCC2)no1 (stereo unspecified) | i | -0.27
CC(C)C(=O)N1CCC(N2CCN(Cc3ccc(F)cc3)C(=O)C2=O)CC1 | i | -0.57
COCCNC(=O)c1ccc(NC(=O)c2nnc(C3CCCCC3)s2)cc1 | i | -0.28
COc1ccc2c(c1)c(NC(C)=O)c1n2CC(C)(C(=O)NC2CCCCC2)N(C2CCCCC2)C1=O (stereo unspecified) | i | -0.03

Screening data deposited in PubChem by ICCB-Longwood Screening Facility, Harvard Medical School.
